CBX7 AlphaScr – CBX7 chromodomain binding inhibitors, primary screen, biochemical, AlphaScreen | AlphaScreen His6-CBX7 / biotin-H3K27me3 peptide binding; hits give low values | 1.1% of 66,000 active | Chromobox protein homolog 7 (Homo sapiens), O95931 | normalised signal (fraction of DMSO) (concentration not given with the values) | AID 1224903, 2016; in the data active = normalised signal below about 0.5;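 also: 100 nL library stock added to about 20 µL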
Target sequence (O95931 whole entry, looked up): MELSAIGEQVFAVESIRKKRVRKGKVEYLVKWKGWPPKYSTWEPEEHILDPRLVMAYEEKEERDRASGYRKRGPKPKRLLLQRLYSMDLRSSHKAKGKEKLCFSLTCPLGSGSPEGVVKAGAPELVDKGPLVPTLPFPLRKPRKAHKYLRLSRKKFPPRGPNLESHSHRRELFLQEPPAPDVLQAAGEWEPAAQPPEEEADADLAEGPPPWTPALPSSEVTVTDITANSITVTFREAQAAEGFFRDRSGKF
CBX7 AlphaScr z-score – further read-out of CBX7 AlphaScr, marked with its call; z-score; measured here: z-score of CBX7 signal; some inactives read as strong as hits; reference of the scale not given here;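 same signal on another scale; lower means less binding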
An asterisk follows results filed as active; & = joins results of further samples. These rows are one share of the data; the hit share may differ from the screen's.

Preview:
SMILES	CBX7 AlphaScr	CBX7 AlphaScr z-score
CC1CCN(c2c(NCc3ccc(C(=O)Nc4ccc5c(c4)OCCO5)cc3)c(=O)c2=O)CC1	0.81	-2.7
CCOC(=O)c1cnc2ccc(OCC)cc2c1Nc1cccc(C(F)(F)F)c1	1.1	1.2
COc1cc2c(cc1OC)C1C(C(=O)NCc3ccc(F)cc3Cl)c3ccccc3C(=O)N1CC2 (configuration not stated)	0.97	-0.82

All compounds of this part (from the top)
SMILES	CBX7 AlphaScr	CBX7 AlphaScr z-score
CC1CCN(c2c(NCc3ccc(C(=O)Nc4ccc5c(c4)OCCO5)cc3)c(=O)c2=O)CC1	0.81	-2.7
CCOC(=O)c1cnc2ccc(OCC)cc2c1Nc1cccc(C(F)(F)F)c1	1.1	1.2
COc1cc2c(cc1OC)C1C(C(=O)NCc3ccc(F)cc3Cl)c3ccccc3C(=O)N1CC2 (configuration not stated)	0.97	-0.82
COc1cccc(NC(=O)CCc2nc3ccccc3[nH]2)c1	1	0.5
CCCCN(CC)CCCNC(=O)CS(=O)(=O)Cc1nc(-c2cccc(OC)c2)oc1C	0.96	-1.2
CCCCOc1ccc(C(C)NC(=O)CN2CCN(Cc3ccc(C)cc3)C2=O)cc1 (configuration not stated)	1.1	2.2
CCc1ccc(NC(=O)c2cc(S(=O)(=O)N3CCC(C)CC3)ccc2F)cc1	1	0.083
CCOc1ccc2nc(N3CCC(C(=O)NCCc4c[nH]c5ccccc45)CC3)sc2c1	0.83	-0.74
COc1ccc(-c2nc(N)nc(C(F)(F)F)c2-c2csc(C)n2)c(O)c1	0.99	-0.35
Cc1ccc(C(=O)Nc2ccccc2-c2nc3ccccc3s2)cc1C	1.1	1.9
CCCCNC(=O)c1cc(-c2ccc3c(c2)OCO3)on1	1.3	2.5
CCN(CC)CCCNC(=O)c1cc(-c2ccc(C)c(C)c2)nc2ccccc12	1.1	1.5
COc1ccc(OC)c2[nH]c(=O)c(CCNC(=O)Cc3cccc(C)c3)cc12	1	1.3
COc1ccc(-c2cc3ccccc3n2CC(O)Cn2c(Cc3ccccc3)nc3ccccc32)cc1 (configuration not stated)	0.97	-0.32
Cc1ccc(NC(=O)CC2Nc3ccccc3N(CC(=O)Nc3cccc(C)c3)C2=O)cc1 (configuration not stated)	1	0.66
O=C(CCc1cn(Cc2ccccc2)c2ccccc12)NCc1ccc2c(c1)OCO2	1.1	1.2
COc1ccc(-c2nc(CSCC(=O)NCCCN3CCOCC3)c(C)o2)cc1OC	1.1	1.8
Cc1sc2ncnc(Nc3ccc(Cl)cc3Cl)c2c1C	0.87	-2.1
CCN(CC)CCn1c(=N)n(CC(O)COc2ccc(OC)cc2)c2ccccc21 (configuration not stated)	0.92	-2.4
COc1ccc(-c2cc(C(F)(F)F)n3nc(-c4ccc(C)cc4)cc3n2)cc1	1.2	2.5
CCc1ccccc1NC(=O)CCc1nc(-c2ccc(OC)cc2)no1	0.8	-3
CCOc1cc(CNc2ccc3[nH]c(=O)[nH]c3c2)ccc1OCC(=O)NC(C)(C)C	0.87	-1.4
COc1ccc(-n2c3c(cc(C(=O)NCCCO)c2=O)C(=O)CC(C)(C)C3)cc1	1.2	0.77
COc1cc(OC)cc(C(=O)Nc2c3c(nn2-c2cccc(C)c2C)CSC3)c1	0.97	-0.56
O=C(Nc1cccc(C(F)(F)F)c1)c1ccc2c(=O)n3c(nc2c1)CCCCC3	1.1	2.1
COc1ccc(NC(=O)Nc2sc3c(c2C(N)=O)CC(C)CC3)cc1 (configuration not stated)	1	0.017
FC(F)(F)c1cccc(Nc2nc(-c3ccc(C4CCCCC4)cc3)cs2)c1	0.56	-4.8
COC(=O)C(Cc1c[nH]c2ccccc12)NC(=O)c1cc(O)cc(O)c1 (configuration not stated)	0.91	-1.6
Cc1cccc(C)c1Nc1c(-c2ccc(-c3ccccc3)s2)nc2ccc(Cl)cn12	0.79	-0.28
CCOC(=O)c1c(NC(=O)COc2cccc(C)c2)sc2c1CCC(C)C2 (configuration not stated)	1.1	3.4
COc1ccccc1N1C(=O)c2ccc(C(=O)Nc3ccc(F)cc3)cc2C1=O	0.95	-1.8
CC12CCC(C(=O)N(c3nc4c(s3)CCCC4)C1=O)C2(C)C (configuration not stated)	1	-0.042
COc1ccc(CC(=O)Nc2nnc(C3CCCCC3)s2)cc1	1	0.096
Cc1ccc(Nc2nc(-c3ccccc3F)nc3ccccc23)cc1Cl	1.2	5.1
COc1ccc(OC)c(CCNC(=O)C2CCN(c3nc4c(C)cc(C)cc4s3)CC2)c1	1.1	1.2
CCOC(=O)c1oc2ccccc2c1NC(=O)CCN1CCCCC1	1	1.1
COc1cc(C)c(S(=O)(=O)NCCc2c(C)[nH]c3ccc(Br)cc23)cc1C	0.51	-0.49
Cc1ccc(S(=O)(=O)C2(C(=O)Nc3ccc(Br)cc3)CC2)cc1	1.1	4.4
Cc1ccccc1-c1nc(C(=O)NCCCN2CCOCC2)c(C)o1	1	0.53
COc1ccccc1C(O)(C(=O)Nc1ccccn1)c1ccccc1OC	1	0.12
O=S(=O)(c1ccccc1)c1nc(-c2cccs2)oc1SCc1ccccc1Cl	0.96	-0.077
CC1(C(=O)NC2CCCCCC2)CCC(=O)N1Cc1ccc(F)cc1Cl (configuration not stated)	1.2	2.8
Cc1ccc2n1CCn1cc(-c3ccc(Cl)c(Cl)c3)cc1-2	1	0.3
CCOC(=O)c1sc2ncn(CC(=O)Nc3cccc(C(F)(F)F)c3)c(=O)c2c1C	0.98	-0.77
Cc1ccc(NC(=O)CCc2nnc3ccc(N4CCC(c5ccccc5)C4)nn23)cc1 (configuration not stated)	1	0.062
COc1cccc(-c2cc(C(=O)NC(C)c3ccccc3)no2)c1 (configuration not stated)	0.92	-0.89
COc1nnc(-c2ccc(C)c(S(=O)(=O)NC(C)(C)C)c2)c2ccccc12	0.85	-1.8
Cc1cccc(NC(=O)CCc2nc3ccccc3[nH]2)c1	1	0.37
CCOC(=O)c1ccc(NC(=O)c2c(NCc3sccc3C)sc3c2CCC(C)C3)cc1 (configuration not stated)	0.81	-5.4
Cc1ccc(C)c2[nH]c(=O)c(CCNC(=O)C3CCCCC3)cc12	1.1	1.4
O=C(CCc1nc(-c2ccccc2F)no1)Nc1ccccc1F	0.91	-1.4
N#Cc1ccc(NC(=O)c2cc3n(n2)C(C(F)(F)F)CC(c2ccc(Cl)cc2)N3)cc1 (configuration not stated)	1	0.11
COC(CN(C)C(=O)c1cc(Nc2ccc(C)c(C)c2)nc2ccccc12)OC	1.1	1.6
Cc1ccccc1Nc1cc(C(=O)NCc2ccc(F)cc2)c2ccccc2n1	1.1	5.4
Cc1ccc(NC(=O)CSc2nc3ccccc3nc2Cc2ccc(F)cc2)c(C)c1	1	0.18
CCN(CC)C(=O)Cn1cnc2sc(C(=O)Nc3cc(C)c(Cl)cc3OC)c(C)c2c1=O	1.1	1.8
COc1cc2[nH]c(=O)n(CCC(=O)NCCc3c[nH]c4ccccc34)c(=O)c2cc1OC	0.98	-0.52
CCOC(=O)c1cccc(NC(=O)CN2C(=O)COc3ccc(S(=O)(=O)N(CC)CC)cc32)c1	1	0.35
O=C(Nc1ccc(S(=O)(=O)Nc2nccs2)cc1)c1cnc2n(c1=O)CCS2	1	0.012
COc1cc2c(C(=O)NCCCN3CCN(C)CC3)cn(C)c(=O)c2cc1OC	1.1	1.1

Further compounds.
SMILES	CBX7 AlphaScr	CBX7 AlphaScr z-score
Cc1c(C(=O)NC2CCCC2)oc2ccc(S(=O)(=O)N3CCC(C)CC3)cc12	1.2	2.3
COc1ccc(NS(=O)(=O)c2ccc(NC(=O)c3cccnc3)cc2)nn1	1.1	2
COc1ccc(Cl)cc1NC(=O)c1c(NCc2sccc2C)sc2c1CCC2	0.97	-0.52
CN(C)CCC#CC(O)(c1ccccc1)c1ccccc1	1.3	2.7
CCOC(=O)c1cnc2ccccc2c1NCCCN1CCOCC1	1	-0.0013
Cc1ccc2nc3c(c(N)c2c1)CCN3c1ccccc1	1.1	0.11
CCOc1ccc(-c2nc(CSCC(=O)N3CCC(C)CC3)c(C)o2)cc1	1.3	1.9
CCOc1ccccc1NC(=O)c1cccc2c1C(=O)N(C1CCCCC1)C2	0.86	-1.7
COc1ccccc1CNc1ccc2c(c1)ncn2-c1ccccc1OC	0.59&0.73	-21&-11
Cc1ccc(-n2cc(-c3ccccc3)nc2S(=O)(=O)CC(=O)Nc2cccc(C)c2)cc1	0.79	-2.1
Cc1ccc2[nH]c(C)c(CN3CCOCC3)c(=O)c2c1	1.1	0.46
CC(=O)Nc1ccc(Oc2ccc3c(c2)C(=O)N(c2cccc(C)c2)C3=O)cc1	1	0.69
COc1cccc(N2CCN(S(=O)(=O)c3ccc4c(c3)NC(=O)CC(=O)N4)CC2)c1	0.98	-0.72
CCCOc1ccc(-c2nc(Oc3ccccc3)c3ccccc3n2)cc1	1.2	5
O=C(CSc1nc2ccccc2o1)Nc1nnc(-c2ccccc2)s1	0.79	-0.85
CCCc1cc(C(=O)Nc2ccc(F)cc2F)no1	1.1	2.2
O=C(Cn1ncc2c1-c1ccccc1OC2)NCCCN1CCN(c2ccc(F)cc2)CC1	0.82	-5.2
CCc1ccc(N(C)S(=O)(=O)c2ccc3[nH]cc(C(=O)NCC4CCCO4)c(=O)c3c2)cc1 (configuration not stated)	1.1	0.75
Cc1ccc(C)c(-n2c(CCC(=O)O)ccc2-c2cccs2)c1	1.1	2.7
CC(C)(C)OC(=O)N1CCC(c2c(C(=O)O)cnn2-c2ccc(F)cc2)CC1	1	0.12
Cc1ccc2cc(CCNC(=O)c3cc(Br)ccc3Cl)c(=O)[nH]c2c1C	1.1	0.73
CCOC(=O)c1cnc2cc(-c3ccccc3)nn2c1-c1ccccc1	1.4	6.6
COCCCNC(=O)c1nc(-c2ccc(OC)c(OC)c2)oc1C	1	0.031
COc1ccc(-n2c(Cc3cc(=O)[nH]c(=O)[nH]3)nnc2SCc2ccc(C)cc2)cc1	0.76	-3.6
CCN(CC)c1ccc(C2CC(=O)C3=C(C2)Nc2ccccc2NC3c2ccccc2)cc1 (configuration not stated)	0.72	-7
Cc1nc2c(c(C)nn2-c2ccccc2)c(C)c1CCC(=O)N1CCN(c2cccc(Cl)c2)CC1	1	0.47
Cc1ccc(C(=O)CC(C(=O)O)N2CCCCC2)cc1 (configuration not stated)	1.2	1.1
CCc1ccc(NC(=O)C(CC(C)C)NS(=O)(=O)c2ccc3c(c2)CCN3C(C)=O)cc1 (configuration not stated)	0.88	-1.9
COc1ccc(N2CCN(C(=O)CCc3nc(-c4ccc(C)cc4)no3)CC2)cc1	1.1	0.14
c1ccc(NCc2nc3ccccc3n2CCOc2ccccc2)cc1	0.99	-0.32
Cc1ccc(CN2C(=O)CCC2C(=O)NCc2ccc(F)cc2)cc1 (configuration not stated)	1	0.43
COc1cccc(-n2ccnc2SCC(=O)Nc2ccccc2OC)c1	0.86	-2.6
Cc1cc(C)cc(OCCOCCn2c(-c3ccc(Cl)cc3)nc3ccccc3c2=O)c1	1.7	6.8
CCCN1Cc2cccc(C(=O)NCCc3ccccc3)c2C1=O	0.92	-0.94
Cc1n[nH]c(C)c1CCCCOc1c(C(C)C)cccc1C(C)C	0.76	-2.7
O=C(NCCc1ccccc1)C1CC(=O)N(c2ccc(F)c(Cl)c2)C1 (configuration not stated)	1	0.64
O=C(CCc1cn(Cc2ccccc2)c2ccccc12)NC1CCCCCC1	1.2	5
CC1CCCN(CCCNC(=O)c2ccc3c(c2)N(Cc2c(F)cccc2Cl)C(=O)CS3)C1 (configuration not stated)	1	2.2
Cc1ccc2c(c1)-c1c(cnn1CC(=O)Nc1ccc(Cl)cn1)CO2	0.89	-2
Cc1c(C(=O)NCc2ccccc2Cl)oc2ccc(S(=O)(=O)N3CCCC3)cc12	0.81	-3.6
COc1ccccc1CNC(=O)CNC(=O)Cn1cnc2sc(C)c(C)c2c1=O	1.2	1.5
CCCCn1c(C2CC(=O)N(c3ccc(CC)cc3)C2)nc2ccccc21 (configuration not stated)	0.96	-0.9
CCCC(C)c1c(O)nc(Nc2nc(C)c3cc(OC)ccc3n2)[nH]c1=O (configuration not stated)	0.98	-0.25
CC1CCN(CCCNC(=O)c2ccc3c(=O)n(CCc4ccccc4)c(=O)[nH]c3c2)CC1	0.96	-1.1
CCCCNS(=O)(=O)c1ccc2nc(-c3cccnc3)cc(C(=O)NC3CCCC3)c2c1	1	0.25

A draw from above in order of SMILES length, rising.
SMILES	CBX7 AlphaScr	CBX7 AlphaScr z-score
CCCN1Cc2cccc(C(=O)NCCc3ccccc3)c2C1=O	0.92	-0.94
Cc1n[nH]c(C)c1CCCCOc1c(C(C)C)cccc1C(C)C	0.76	-2.7
Cc1ccc2c(c1)-c1c(cnn1CC(=O)Nc1ccc(Cl)cn1)CO2	0.89	-2
COc1ccccc1CNC(=O)CNC(=O)Cn1cnc2sc(C)c(C)c2c1=O	1.2	1.5

Five entries already listed, sorted by the value under CBX7 AlphaScr z-score, low to high.
canonical_smiles | CBX7 AlphaScr z-score
Cc1n[nH]c(C)c1CCCCOc1c(C(C)C)cccc1C(C)C | -2.7
COc1cccc(-n2ccnc2SCC(=O)Nc2ccccc2OC)c1 | -2.6
CCCCn1c(C2CC(=O)N(c3ccc(CC)cc3)C2)nc2ccccc21 (configuration not stated) | -0.9
O=C(NCCc1ccccc1)C1CC(=O)N(c2ccc(F)c(Cl)c2)C1 (configuration not stated) | 0.64
COc1ccccc1CNC(=O)CNC(=O)Cn1cnc2sc(C)c(C)c2c1=O | 1.5

(more compounds)
SMILES	CBX7 AlphaScr	CBX7 AlphaScr z-score
CCOC(=O)C(Cc1ccccc1)NC(=O)c1cccc2c1C(=O)N(Cc1cccnc1)C2 (configuration not stated)	0.91	-1.1
COc1ccc(Nc2cc(C(=O)NCC3COc4ccccc4O3)c3ccccc3n2)c(OC)c1 (configuration not stated)	0.62	-5.8
CC(=O)c1c(C)n(-c2ccc(Cl)cc2)c2ccc(O)cc12	0.95	-0.71
Cc1ccc(C)c(CN2C(=O)CSc3ccc(C(=O)NCC4CCCO4)cc32)c1 (configuration not stated)	0.97	-0.39

Compound activity: PubChem, several laboratories
